T cruzi repl = inhibitors of intracellular T. cruzi growth, primary screen, luminescence, NIH3T3 host cells; inhibition, % (test concentration not listed); AID 1885, 2009; T. cruzi beta-gal in NIH3T3, 90 h; 300,000 compounds, 1.4% hits;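 active = mean inhibition across valid replicates above about 55%, limit read from the data; inconclusive = mean below that limit but half or more replicates reach it; inactive = mean below it, under half of replicates reach it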;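 also: signal also drops with host cell toxicity which is not excluded here; 0% = plate median of DMSO wells and 100% = zero luminescence signal; higher percent means less beta-gal luminescence so fewer parasites; stock transfer was 50 nL into about 50 µL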
MLL AF4-AF9 inh = inhibitors of AF4 peptide binding to AF9, primary screen, biochemical, AlphaScreen, biotin-AF4 peptide, FLAG-AF9, single point | Protein AF-9 (Homo sapiens), P42568 | inhibition, % at 10 µM | 350,000 compounds, 0.47% hits | AID 651704, 2012;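 active = every replicate reaching a set inhibition limit, whatever the replicate mean, cut at about 25% in these data; inconclusive = mean inhibition reaches that limit but some replicates miss it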;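 also: 0% = plate neutral control median and 100% = total signal loss; the record names both 10 and 1 µM as test concentration; the first replicate is given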
Target sequence (P42568 whole entry, looked up): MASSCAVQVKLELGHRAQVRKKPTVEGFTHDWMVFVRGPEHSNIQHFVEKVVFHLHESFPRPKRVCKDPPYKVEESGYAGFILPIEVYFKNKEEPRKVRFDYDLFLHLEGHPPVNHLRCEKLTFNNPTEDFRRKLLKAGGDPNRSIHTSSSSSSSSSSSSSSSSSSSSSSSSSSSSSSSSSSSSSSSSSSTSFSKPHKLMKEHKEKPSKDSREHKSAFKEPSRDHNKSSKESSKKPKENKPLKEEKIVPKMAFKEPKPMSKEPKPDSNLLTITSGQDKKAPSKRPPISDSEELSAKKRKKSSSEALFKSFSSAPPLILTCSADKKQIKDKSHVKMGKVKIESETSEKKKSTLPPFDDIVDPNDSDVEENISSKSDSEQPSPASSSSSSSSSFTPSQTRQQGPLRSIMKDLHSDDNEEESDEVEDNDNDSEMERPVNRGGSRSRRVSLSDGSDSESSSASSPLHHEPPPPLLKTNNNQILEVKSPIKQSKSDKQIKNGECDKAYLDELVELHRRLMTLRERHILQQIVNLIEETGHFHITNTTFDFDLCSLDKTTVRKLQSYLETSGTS
rRNA inh HTS = reduced GFP signal of wild-type E. coli, primary screen, bacterial rRNA inhibitor project, GFP/RFP fluorescence, OD600, single point | E. coli WT GFP vs humanized-ribosome RFP mutants, 24 h; active compounds read low; DMSO median 0, no signal -100 | GFP signal change (wild-type ribosome), % (no concentration beside the values) | AID 720706, 2013 | 350,000 compounds, 1.6% hits;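 active = significant combined selectivity score with lowered wild-type GFP, culture density cut under 30%, mutant RFP and density less affected; inactive = any of these conditions unmet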; also: one replicate is shown; some compounds called inactive have numbers as strong as hits
RanGTP-Impb inh = inhibitors of RanGTP-importin-beta interaction, primary screen, biochemical, FRET, CFP-Ran, YFP-importin-beta, homogeneous; Ran GTPase (GTP-bound) - importin-beta complex; cell-free CFP-Ran/YFP-importin-beta FRET ratio; inhibition, % (test concentration not listed); 300,000 compounds, 1.1% hits; AID 2216, 2009;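 active = most replicates above 15%; inconclusive = exactly half above 15%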;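 also: 0% = DMSO wells and 100% = Ran loaded with GDP instead of GTP; wells of about 40 µL received 100 nL stock; the first replicate is given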
Beta apoptosis = inhibitors of cytokine-induced beta cell apoptosis, primary screen, luminescence; INS-1E cytokine-induced death, ATP luminescence, 48 h; percent of positive-control rescue, neutral wells zero; protection from apoptosis, % (concentration not given with the values); 300,000 compounds, 0.8% hits; AID 435005, 2010;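 active = all replicates at 75% or more, or half of them and the mean; inconclusive = half reach 75% but not the mean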;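 also: 0% = cytokine-treated negative control wells and 100% = positive control rescue; higher means more ATP so stronger rescue from cytokine killing; wells of about 40 µL received 100 nL stock; the first replicate is given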
Vif TR-FRET = inhibitors of Vif binding to APOBEC3G peptide, primary screen, biochemical, TR-FRET, GST-Vif 1-94, biotin-A3G peptide, dose response retest (AID 1117319). Virion infectivity factor (Human immunodeficiency virus type 1 group M subtype B (isolate …. TR-FRET GST-Vif / biotin-A3G peptide binding; higher % means a stronger effect; test concentration not given here; strong numbers were not always called active. inhibition, %; hits with a dose series show IC50 in µM. 260,000 compounds, 0.57% hits;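 active = above the screen mean plus three standard deviations and confirmed in dose response; inconclusive = results disagree or hit not tested in dose response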;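 also: Vif residues 1-94 fused to GST binding biotinylated APOBEC3G peptide 110-148; 0% = full assay without inhibitor and 100% = GST in place of GST-Vif; retest series ran down from 100 µM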
Calb FLC = C. albicans growth inhibition with fluconazole, primary screen, CaCi-2 strain, Alamar Blue fluorescence; AID 1979, 2009; growth inhibition, % (test concentration not listed); 300,000 compounds, 0.57% hits; C. albicans CaCi-2 (fluconazole-resistant clinical isolate) + fluconazole, 48 h;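 active = most replicates above 75%; inconclusive = exactly half above 75%; inactive = most below 75%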;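 also: all wells also contain fluconazole at 8 µg/ml as a sub-toxic cotreatment; 0% = median of DMSO wells and 100% = median of geldanamycin control wells; wells of about 8 µL received 7.5 nL stock; the first replicate is given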
A1 inh = caspase 3/7 activation in MEF A1-2A-BIM cells, primary screen, A1 inhibitor project, cell-based, luminescence, HTS. caspase activation, % (concentration not given with the values). 330,000 compounds, 0.066% hits. Caspase-Glo 3/7 luminescence, 3 h; percent of clofoctol response, vehicle zero. AID 2462, 2010;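 active = over half of replicate activation scores above 10%, or exactly half above 10 with the replicate mean above 10; inconclusive = replicate mean below 10 yet half the replicates above 10; inactive = over half of replicates below 10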;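 also: wells of about 30 µL received 50 nL stock; many hits fall short of the cut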
rRNA inh HTS OD600 = recorded beside rRNA inh HTS, whose call it bears; OD600 change, %; measured here: OD600 growth;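 optical density of the mix in the first replicate; 0 = DMSO median and -100 = no signal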
rRNA inh HTS RFP = further read-out of rRNA inh HTS, marked with its call; RFP signal change, %; measured here: RFP humanized mutant strains;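 first replicate; 0 = DMSO median and -100 = no signal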
* hit, by the source's call; ? = inconclusive; / = no result given. Not all compounds are listed; rates above refer to the full screens.

Compound | T cruzi repl | MLL AF4-AF9 inh | rRNA inh HTS | rRNA inh HTS OD600 | rRNA inh HTS RFP | RanGTP-Impb inh | Beta apoptosis | Vif TR-FRET | Calb FLC | A1 inh
Cc1ccc(N(CC(=O)Nc2ccccc2-c2ccccc2)S(=O)(=O)c2ccccc2)cc1 | 44 | / | / | / | / | 1.4 | 3 | -7% | -5 | -0.2
C=CCN1C(=O)SC(Cc2cccc(OC)c2O)C1=O (stereo not given) | 7 | -1.4 | 10 | 0 | -1.8 | 3.2 | -2 | -2% | 66 | -0.1
COC(=O)COc1ccc(S(=O)(=O)Nc2ccc3c(c2)OCCO3)cc1C | 0 | -1.2 | 9 | 18 | 5.4 | -3.1 | -6 | / | -4 | -0.4
CSc1ncccc1C(=O)N1CCN(S(=O)(=O)c2ccccc2)CC1 | 0 | 1.4 | 0 | 3 | 0.8 | ? | 5 | / | -6 | -1.2
CCC(C)NC(=O)c1ccccc1NC(=O)c1ccccc1N(C)S(C)(=O)=O (stereo not given) | 0 | / | / | / | / | -2.2 | 2 | -2% | 1 | -1.0
Cc1cc(C(=O)NNC(=O)c2ccc(NC(=O)CC#N)cc2)c(C)o1 | / | -1.0 | -2 | 16 | 0.7 | / | -2 | 4% | / | 2.4
CCc1ccc2oc(C(=O)NCc3ccc(S(N)(=O)=O)cc3)c(C)c2c1 | 17 | -0.9 | 17 | 11 | 2.9 | -2.1 | / | / | 10 | 1.0
C=CCN(C(=O)c1csnn1)C(C(=O)NC1CCCC1)c1ccc(F)cc1 (stereo not given) | 0 | -2.3 | 2 | 10 | -0.7 | 1.7 | 9 | -4% | 9 | -0.5
Oc1ccccc1/C=N/Nc1ccccc1 | -1 | 20 | -28 | -28 | -4.6 | 8.5 | 3 | 3% | 26 | -5.1
CC(C)C(NC(=O)CN1C(=O)c2ccccc2S1(=O)=O)C(C)C | -30 | 5.7 | -3 | -3 | 6.5 | 4.0 | / | -3% | -2 | -1.1
CCOC(=O)C1=C(C)NC(C)=C(C(=O)OCC)C1C(=O)OCC(=O)NCc1ccccc1OC | / | -2.6 | -18 | -22 | 1.4 | / | -1 | 0% | / | -0.7
O=C(CCCSc1ccc(Cl)cc1)Nc1ccccc1O | -23 | / | / | / | / | 3.1 | 0 | 11% | -2 | 0.1
NC(=S)Cc1ccc(Cl)cc1Cl | -26 | 5.2 | 13 | 10 | 1.1 | 0.9 | -6 | 1% | -8 | 1.0
CCOC(=O)c1c(NC(=O)CCNCc2ccco2)sc2c1CCC2 | 4 | / | / | / | / | 1.4 | -7 | -2% | -9 | 1.1
c1ccc(-c2nc(NC3CC3)nc(-n3ccnc3)n2)cc1 | -4 | / | / | / | / | 0.7 | 10 | 31% | 9 | -1.0

Retrieved by structure from the entries so far, two records:
Compound | T cruzi repl | MLL AF4-AF9 inh | rRNA inh HTS | rRNA inh HTS OD600 | rRNA inh HTS RFP | RanGTP-Impb inh | Beta apoptosis | Vif TR-FRET | Calb FLC | A1 inh
CSc1ncccc1C(=O)N1CCN(S(=O)(=O)c2ccccc2)CC1 | 0 | 1.4 | 0 | 3 | 0.8 | ? | 5 | / | -6 | -1.2
Oc1ccccc1/C=N/Nc1ccccc1 | -1 | 20 | -28 | -28 | -4.6 | 8.5 | 3 | 3% | 26 | -5.1

(cont.)
Compound | T cruzi repl | MLL AF4-AF9 inh | rRNA inh HTS | rRNA inh HTS OD600 | rRNA inh HTS RFP | RanGTP-Impb inh | Beta apoptosis | Vif TR-FRET | Calb FLC | A1 inh
CC1Cc2ccccc2N1C(=O)CN1CCC(n2nnc3cc(C(F)(F)F)ccc32)CC1 (stereo not given) | 44 | / | / | / | / | -1.0 | 10 | -6% | 1 | 0.1
COc1ccc(N2C(=O)C3C4c5ccccc5C(C=Nc5ccc(C)cc5C)(c5ccccc54)C3C2=O)cc1 (stereo not given) | 9 | / | / | / | / | -1.8 | -2 | -1% | -20 | -0.6
CSc1nsc(SC)c1NC(=O)N1CCCC1 | -6 | / | / | / | / | ? | -8 | 5% | -8 | 0.2
CC1CC(=O)Nc2ccc([N+](=O)[O-])cc2N1C (stereo not given) | -10 | / | / | / | / | 4.8 | -4 | 7% | 6 | 0.4
COc1ccc(C2C(C(=O)N3CC(C)CC(C)C3)c3ccccc3C(=O)N2C)cc1 (stereo not given) | 1 | / | / | / | / | -0.2 | 1 | -3% | 8 | 2.5
O=C(CSc1nncs1)Nc1nccs1 | ? | -2.2 | 2 | 2 | -2.8 | 2.3 | -7 | 8% | / | -0.8
Cc1c(C(=O)OCC(=O)Nc2cccc(S(N)(=O)=O)c2)oc2c1ccc1ccccc12 | 3 | -2.1 | -22 | -9 | 11 | 2.6 | -9 | -13% | 6 | -0.3
COCCN(C(=O)CCSc1ccc(F)cc1)c1c(N)n(Cc2ccccc2)c(=O)[nH]c1=O | / | -1.2 | -1 | -6 | 0.1 | / | -6 | 1% | / | 0.4
CC1=C(/C=C/C(C)=C/C=C/C(C)=C/CO)C(C)(C)CCC1 | 11 | -5.3 | -1 | 18 | 5.7 | -4.1 | -1 | / | 4 | 0.1
O=C(O)c1ccc(-n2nnnc2SCc2ccccc2)cc1 | -13 | / | / | / | / | 3.0 | 2 | 23% | -14 | 1.7
Cc1ccnc(Sc2ncccc2[N+](=O)[O-])n1 | -4 | / | / | / | / | 1.9 | -5 | -5% | -1 | -0.7
CC(=O)c1cn(CC(=O)NCc2ccco2)c2ccccc12 | -14 | / | / | / | / | -2.1 | -2 | 5% | -13 | 0.4
CCOc1ccc(C2c3[nH]c4ccccc4c3CCN2Cc2cn(CC)nc2C)cc1 (stereo not given) | 20 | 7.0 | -3 | -7 | -1.0 | -2.1 | -2 | -4% | 17 | -0.4
CCOC(=O)c1c(S(=O)(=O)NCCc2cccs2)c(C)n(C)c1C | -11 | 5.9 | -3 | -6 | 0.4 | 3.9 | -8 | / | 1 | -0.5
Cc1cccc(C(=O)C2CCN(S(=O)(=O)c3cccc(C(=O)O)c3)CC2)c1 | 7 | -4.0 | -4 | -17 | 2.5 | -3.0 | / | 0% | -6 | /
Cc1cc2ncn(-c3ncnc4sc5c(c34)CCC(C)C5)c2cc1C (stereo not given) | -12 | -6.3 | 12 | 9 | -2.0 | 2.3 | -3 | 5% | -17 | 0.9
NC(=O)c1cnn2c(C(F)(F)F)cc(-c3ccccc3)nc12 | -6 | / | / | / | / | -1.1 | 12 | -9% | -20 | 0.1
CCSc1nnc(NC(=O)CSc2nccn2-c2cccc(C)c2)s1 | 3 | / | / | / | / | ? | -3 | 4% | -12 | 0.3
CCC1CCCCN1CCCNC(=O)C1CCN(S(=O)(=O)N2CCCCC2)CC1 (stereo not given) | 12 | / | / | / | / | -1.2 | -1 | 7% | 7 | -0.4
Cc1ccc(C)c(NC(=O)CN(C)C(=O)COc2ccc3ccccc3c2)c1 | / | 0.4 | 9 | 12 | 3.7 | / | -4 | -5% | / | 2.3
CCOC(=O)c1sc(NC(=O)CSc2n[nH]c(CC(C)C)n2)nc1C | -8 | -61 | -13 | -6 | 5.3 | -0.9 | -3 | -7% | -7 | 0.4
CCN(C(=O)CSc1nnc(CNc2cccc(OC)c2)n1C1CCCCC1)C1CCS(=O)(=O)C1 (stereo not given) | 6 | 0.6 | -1 | 1 | -1.4 | 4.4 | / | 2% | 1 | 1.9
Cc1nn(C(C)C)c(C)c1CN1CCCC(C(=O)c2cccc(OC(C)C)c2)C1 (stereo not given) | 49 | -2.1 | 14 | 14 | -1.9 | -1.3 | 5 | 18% | -15 | -0.4
COc1ccc(CNC(=O)Cc2c[nH]c3ccccc23)cc1OC | -12 | -4.4 | -4 | -14 | -1.6 | 3.8 | -4 | -5% | -2 | 1.6
COCc1cc(CN2CCCC(CNC(=O)c3ccc(F)cc3)C2)ccc1OC (stereo not given) | 81* | 1.5 | 15 | 18 | -0.9 | -1.1 | -6 | 4% | 2 | 0.0
CN(C(=O)c1cccc(S(=O)(=O)NCc2ccccc2)c1)C1CCCCC1 | / | 1.6 | -14 | -24 | -1.6 | / | -3 | -1% | / | -0.5
O=C(NCCCNC(=O)c1cnccn1)c1ccc(Br)cc1 | 6 | 0.4 | 5 | 11 | -0.1 | -0.7 | -1 | / | 5 | -0.3
Cc1cc(NC(=O)CSCC(=O)N(c2cccc(Cl)c2)C(C(=O)NC2CCCCC2)c2ccc(O)c(O)c2)no1 (stereo not given) | 16 | / | / | / | / | ? | 2 | / | 10 | 1.9
CCOC(=O)CCc1cnccc1-c1cccc(OC)c1O | 11 | -4.2 | -7 | 0 | -2.0 | -1.7 | -2 | / | -8 | -1.0
O=C(O)c1ccc(NC2CC(=O)N(Cc3ccccc3)C2=O)cc1 (stereo not given) | -13 | 0.3 | 10 | 11 | -2.7 | -1.1 | 0 | -4% | -10 | -0.9
CCc1ccc2[nH]c(=O)c(Cc3ccccc3)c(O)c2c1 | -8 | -6.2 | 3 | -9 | 2.7 | 0.0 | -1 | / | -3 | 0.9
CCN(C(=O)COC(=O)c1nc2nc(C)cc(C)n2n1)C1CCS(=O)(=O)C1 (stereo not given) | 3 | -1.7 | 17 | 18 | 0.1 | 2.8 | 0 | / | -17 | 0.3
O=c1cc(N2CCN(c3ccccc3)CC2)[nH]c(=O)n1-c1ccccc1 | -13 | / | / | / | / | 9.2 | -4 | 6% | 0 | 1.1
CCC(C)[C@H](NC(=O)Nc1ccccc1F)C(=O)O (stereo not given in full) | -10 | -34 | -1 | 5 | 0.0 | -2.4 | -5 | -3% | 0 | 1.1
CCC(=O)N1CCN(c2nc3ccc(Br)cc3s2)CC1 | -9 | -4.1 | -6 | -17 | -3.2 | 0.8 | 1 | / | 13 | 1.2
COc1ccc(OC)c(-c2csc(NC(=O)CN3C(=O)NC4(CCCC4)C3=O)n2)c1 | 0 | 4.0 | -25* | -19* | -1.8* | 4.7 | 2 | -3% | / | 0.0
Cc1ccc(NC(=O)c2ccc(=O)[nH]n2)cc1C | 0 | -6.6 | 0 | 6 | -4.0 | -0.8 | 0 | -6% | 2 | -1.6
